Mtb MenB inh: inhibitors of Mycobacterium tuberculosis MenB enzyme. P9WNP5. MenB enzyme assay, absorbance read-out; some hits fall short of the stated cut. inhibition, %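 (about 12 µg/mL by stock and volumes)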. 0.43% of 100,000 active;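 active means mean of two replicates above 30%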;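 further: 0% = no compound and 100% = wells with inactive enzyme; the first replicate is given; strong numbers were not always called active; inactives centre near -10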
Target sequence (P9WNP5 whole entry, looked up): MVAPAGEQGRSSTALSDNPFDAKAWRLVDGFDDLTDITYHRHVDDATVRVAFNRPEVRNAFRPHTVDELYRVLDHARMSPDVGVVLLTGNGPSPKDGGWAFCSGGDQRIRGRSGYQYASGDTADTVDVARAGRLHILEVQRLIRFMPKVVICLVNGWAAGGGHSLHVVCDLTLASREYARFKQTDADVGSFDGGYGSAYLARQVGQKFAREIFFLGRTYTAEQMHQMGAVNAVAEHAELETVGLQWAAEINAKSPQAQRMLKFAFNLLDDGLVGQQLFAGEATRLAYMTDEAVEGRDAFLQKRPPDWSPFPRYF
Mtb MbtI inh: MbtI salicylate synthase inhibition; P9WFX0; purified MbtI enzyme, fluorescence intensity read-out; inhibition, %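 (about 17 µg/mL by stock and volumes)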; 0.89% of 100,000 active; AID 493033;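 active means above 50% in both replicates, above 80% if mildly self-fluorescent; inactive means the rest, strongly fluorescent compounds included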;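 further: 0% = mean of negative and 100% = mean of positive controls; one replicate is shown; some compounds called inactive have numbers as strong as hits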
Target sequence (P9WFX0 whole entry, looked up): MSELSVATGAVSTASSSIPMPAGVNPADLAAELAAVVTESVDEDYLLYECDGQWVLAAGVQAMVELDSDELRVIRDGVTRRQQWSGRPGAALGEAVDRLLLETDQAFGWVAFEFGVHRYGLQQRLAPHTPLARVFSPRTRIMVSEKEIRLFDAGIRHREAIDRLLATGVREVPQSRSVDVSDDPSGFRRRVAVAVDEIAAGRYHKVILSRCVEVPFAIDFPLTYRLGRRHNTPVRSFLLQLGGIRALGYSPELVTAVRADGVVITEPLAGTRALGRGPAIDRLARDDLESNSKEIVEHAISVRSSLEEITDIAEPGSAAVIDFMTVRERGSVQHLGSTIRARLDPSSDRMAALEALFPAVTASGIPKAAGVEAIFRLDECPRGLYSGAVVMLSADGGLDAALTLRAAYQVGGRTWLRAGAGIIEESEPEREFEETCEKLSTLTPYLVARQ
PV pol inh: poliovirus RNA polymerase inhibition | % elongation, % (compound at 16.7 µg/mL) | poliovirus polymerase elongation, fluorescence polarization; stronger effect = lower value | 0.66% of 150,000 active | P03300; in the data active means % elongation below about 90%; further: some results filed as inactive read as strong as hits
PV pol inh intensity: recorded beside PV pol inh, whose call it bears; % elongation; measured here: total intensity read-out; formula for this scale not given here;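 total fluorescence in place of polarization; lower means less elongation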
Starred values were filed as active, the others as inactive; . = not tested or not shown; & = joins results of further samples.

The line under a structure holds: Mtb MenB inh	Mtb MbtI inh	PV pol inh	PV pol inh intensity
Cc1cc(N2C(=O)Nc3ccccc3N2O)no1
→ 9	-5	101	108
COc1ccc(C2CC(=O)N(c3ccccc3)C3=C2C(=O)CCC3)c(OC)c1 (configuration not stated)
→ 3	10	101	102
COc1cc(Cl)cc(C(=O)O)c1O
→ 4	.	101	99
O=C(NCc1ccco1)C(c1ccccc1)c1ccccc1
→ -8	.	111	115
CC(CCc1ccccc1)NC(=O)CSc1ccccn1 (configuration not stated)
→ .	63	100	106
Cc1ccc(Nc2nc(C3(C)CC(C(C)C)C(=O)O3)cs2)cc1 (configuration not stated)
→ -26	2	99	98
N#CCC(=O)Nc1cccc2ncccc12
→ -16	-47	98	119
CN(C(=O)CSc1nc(N)c(NC(=O)c2ccccc2)c(=O)[nH]1)c1ccccc1
→ -5	1	99	101
CN(C(=O)c1cc2sccc2n1C)C1CCCCC1
→ 1	12	102	102
O=C(NCCc1ccccc1)C1CCCN1C(=O)Nc1ccccc1 (configuration not stated)
→ -10	-22	100	102
C=CCn1c(-c2ccccc2Cl)nc2ccccc21
→ -10	-13	104	107
CC(=O)Oc1ccccc1C(=O)N(c1ccccc1)C(C)C1CC1 (configuration not stated)
→ .	-2	99	102
OCc1nc(-c2ccc(Cl)cc2)n2ccccc12
→ -19	-11	105	108
Cn1c(=O)[nH]c(=O)c2c1[nH]c(=S)n2CC(O)COc1ccc2ccccc2c1 (configuration not stated)
→ -29	.	92	98
Cc1ccc(C)c(CNC(=O)c2nc3c(nnn3CC3CCCO3)c(=O)[nH]2)c1 (configuration not stated)
→ 14	5	101	101
CCN(CC)c1ccc(C=C2C(=O)c3ccccc3C2=O)c(OC)c1
→ 0	14	132	155
CCOC(=O)C1CCN(C(=O)c2sc(-c3ccc4c(c3)CCO4)nc2C)CC1
→ 1	-29	107	110
COc1cc(-c2nnc(COC(=O)[C@H](C(C)C)N3C(=O)c4ccccc4C3=O)o2)cc(OC)c1OC
→ -34	-41	110	114
Cc1cc(NC(=O)COC(=O)C2CCCCC2)no1
→ -37	-12	104	109
Clc1ccc(SCc2cn3ccsc3n2)cc1
→ -21	-2	103	105
O=C(CSc1nnc2ccccn12)NC(=O)Cc1ccccc1
→ 8	151	103	108
COc1ccc(Cl)cc1NC(=O)/C=C/c1cccs1
→ .	-4	103	106
COc1ccc(S(N)(=O)=O)cc1-c1nnc2c3ccccc3c(C)nn12
→ 13	19	102	98
CCN(CC)C(=O)CP(=O)(c1ccccc1)c1ccccc1
→ -48	-5	101	100
CNC(=O)COc1ccc(Nc2nnc(-c3ccc(C)cc3)c3ccccc23)cc1
→ -16	3	102	106
CCCc1nc2c(sc3nc4c(cc32)COC(C)(C)C4)c(=O)n1N
→ -3	-40	99	99
CCCCNC(=O)c1ccc(NC(C)=O)cc1
→ 14	-7	99	106
Cc1ccc(NC(=O)c2cc3ccccc3c([N+]#N)c2[O-])cc1
→ -49	12	100	104
O=C(/C=C/c1ccccc1)N1CCCCC1c1cccnc1 (configuration not stated)
→ -5	.	107	110
Cc1ccccc1-c1nnc2s/c(=C\c3ccccc3)c(=O)n12
→ -1	7	101	101
Oc1ccc(CCc2n[nH]c(=S)n2CCc2ccccc2)cc1
→ 4	0	105	103
Oc1ccc2c(c1)[nH]c1ccccc12
→ -2	-82	109	116
CCN1C(=O)C2(c3ccccc31)c1c(oc3ccccc3c1=O)C(=O)N2CCCOC (configuration not stated)
→ -11	-30	103	102
COc1ccc(NC(=O)C2CCN(Cc3cnn(-c4ccccc4)c3-n3cccc3)CC2)cc1OC
→ 12	1	99	102
O=C(C1CCCCC1)N1CCN(c2nnc(-c3ccccc3)c3ccccc23)CC1
→ -3	0	102	99
Cc1nn(-c2ccccc2)nc1CNS(C)(=O)=O
→ -11	11	102	108
CCCN(CCC)c1c(Cl)c(Cl)nc(C(=O)O)c1Cl
→ -21	-18	104	94
COc1ccccc1-c1nc(-c2cccc(Br)c2)no1
→ -11	-7	98	105
COCCn1c(N)c(C(=O)c2cccc(S(=O)(=O)N3CCCCCC3)c2)c(=O)[nH]c1=O
→ -9	18	99	97
COc1ccc(-n2cnc3cc(NCc4ccccc4O)ccc32)cc1
→ -26	.	102	87
Cc1c(COC(=O)c2ccccc2)sc2ccccc12
→ -24	-6	110	102
CCOC(=O)c1c(NC(C)=O)c2c3c(sc2n1Cc1ccccc1Cl)CCCC3
→ -9	1	100	100
Cc1onc(-c2c(F)cccc2Cl)c1C(=O)N(CCO)CCO
→ -20	-3	103	102
CCN(CC)Cc1c(O)ccc2c(C)cc(=O)oc12
→ -23	116	104	102
Cc1ccc(S(=O)(=O)NCCC(=O)NC2CCCCC2)cc1
→ .	0	102	102
Cc1noc(C)c1CSc1ncnc2sccc12
→ -2	7	94	98
COc1ccc(NC(=O)C2(N(C(=O)Cn3nnnc3N)c3ccc(OC)cc3)CCCCC2)cc1
→ -13	.	107	96
O=C(CN1CCN(c2ccccc2)CC1)Nc1nnc(C2CCCCC2)s1
→ -16	-14	105	102
CN1C2C[C@H](OC(=O)[C@H](CO)c3ccccc3)C[C@H]1[C@@H](O)C2
→ 1	-11	101	101
CCCCNC(=O)C1CCCN(S(=O)(=O)CC)C1 (configuration not stated)
→ -1	-22	99	101
Cc1ccccc1OCC1=NN2C(=N)/C(=C/c3ccc(N(C)C)cc3)C(=O)N=C2S1
→ -32	-14	70	176
O=C(COc1ccccc1F)NCC(c1ccc(F)cc1)N1CCOCC1 (configuration not stated)
→ -22	-11	109	107
COc1cc(C)c(CN2CCCCC2)cc1C
→ 4	-12	102	103
C=CCN(CC=C)Cc1c(O)ccc2c(=O)c(-c3ccccc3)coc12
→ -1	29	101	102
CCOc1ccc(NC(=O)C2C3C=CC(O3)C2C(=O)O)cc1 (configuration not stated)
→ 9	.	102	97
O=C1NC(=S)NC(=O)C1=CN1CCCc2ccccc21
→ -79	16	103	114
Cc1ccc(C(C(=O)NCc2ccccc2)N(C(=O)C2COc3ccccc3O2)c2cccc(O)c2)o1 (configuration not stated)
→ -17	-3	102	101
NS(=O)(=O)c1ccc(CCNC(=O)CCC2COc3ccccc3O2)cc1 (configuration not stated)
→ -2	-3	105	106
CCNC(=O)C1CCCN(c2nnc(N3CCCC3=O)s2)C1 (configuration not stated)
→ -8	1	103	107
NC(=O)Cc1csc(N)n1
→ -2	8	99	98

Next records follow.
Molecule,Mtb MenB inh,Mtb MbtI inh,PV pol inh,PV pol inh intensity
O=C(NC1CCN(Cc2nnnn2Cc2ccc3c(c2)OCO3)CC1)c1ccccc1F,-86,-8,106,102
CC1CC(C)CN(C(=O)c2cc3c(-c4ccc(Cl)cc4)nn(C)c3s2)C1 (configuration not stated),0,3,101,97
Cc1cc2cc(CNC(=O)NC3CCCCC3)ccc2n1C,-15,-6,101,106
CC1(C)c2sc(=O)[nH]c2SC2C(=O)N(c3ccc(Br)cc3)C(=O)C21 (configuration not stated),-8,-10,100,99
CC12C(=O)OC(=O)C1(C)C1CCC2O1 (configuration not stated),-18,-12,103&102,102&101
Cc1ccccc1-n1c(SCC(=O)Nc2ccc(F)c(Cl)c2)nnc1-c1cc2occc2n1C,-29,-16,103,104
C#CC(=O)OCC(=O)Nc1ccc(C)c(C)c1,-25,66*,89*,80*
NCc1cccc(C(F)(F)F)c1,-4,-15,102,105
CSc1ncc(C(=O)NC2CCCCC2)c(C)n1,-7,-13,104,113
Cc1cc(C)n(CC(=O)N2CCc3ccccc32)c(=O)c1C#N,-1,12,103,102
Oc1ccc(C=Nc2ccccc2)cc1,-13,.,102,102
Cc1ccc(N2C(=O)c3cccnc3C2Nc2ccc(S(=O)(=O)N3CCOCC3)cc2)cc1 (configuration not stated),-5,3,102,104
CCC1CCCCN1C(=O)CSc1nc(C)cc(C)n1 (configuration not stated),.,-13,101,106
CS(=O)(=O)Nc1ccc(-c2csc(-c3ccccc3)n2)cc1,-19,5,103,105
CC(=O)OCN1C(=O)N(C)C2C1N(C)C(=O)N2COC(C)=O (configuration not stated),3,5,102,101
N#CCCn1c(=O)oc2cc(Br)ccc21,-12,.,102,112
Cc1nnc(SC2CCOC2=O)n1C1CCCCC1 (configuration not stated),-5,15,99,108
Cc1cc(=O)oc2cc(OC(=O)c3cncc(Br)c3)ccc12,-23,104,96,94
NNC(=O)CC(=O)Nc1nc2ccccc2s1,-13,0,101,107
Cc1noc(C)c1C(=O)Nc1nnc(SCc2ccc(Cl)cc2)s1,-24,10,108,124
CN(C1CCCCC1)S(=O)(=O)c1cc(Cl)ccc1Cl,-6,.,111,113
COc1cccc(NC(=O)c2ccnc(N3CCC(C(=O)O)CC3)c2)c1,-17,-6,101,107
CC1CCN(C(=O)C2=NN(C3CCS(=O)(=O)C3)C(=O)CC2)CC1 (configuration not stated),2,-3,104,104
COc1cc(NS(=O)(=O)c2ccc(NC(=O)c3cccnc3)cc2)ncn1,-12,6,102,101
CCCOc1ccc(C(=O)N2CCCC2)cc1,-5,3,102,103

Rewritten with each value named: part of the list above
CSc1ncc(C(=O)NC2CCCCC2)c(C)n1
  Mtb MenB inh: -7	Mtb MbtI inh: -13	PV pol inh: 104	PV pol inh intensity: 113

Cc1cc(C)n(CC(=O)N2CCc3ccccc32)c(=O)c1C#N
  Mtb MenB inh: -1	Mtb MbtI inh: 12	PV pol inh: 103	PV pol inh intensity: 102

Next compounds
Molecule,Mtb MenB inh,Mtb MbtI inh,PV pol inh,PV pol inh intensity
C=CCNC(=S)N/N=C1\CCS(=O)(=O)c2ccccc21,5,14,102,97
CCOc1ccc2c(c1)[nH]c(=S)n2C,-50,78*,95,86
CCCN(Cc1nnc(-c2ccccc2Cl)o1)C(=O)Cc1coc2cc(OC)ccc12,-26,-11,106,104
CCc1nc(N)ncc1-c1nnnn1-c1ccc(C)cc1,-2,-1,100,104
O=C(NCc1ccc2c(c1)OCO2)c1cnn(-c2cccc(F)c2)c1-n1cccc1,-28,12,100,102
Cc1ccccc1NS(=O)(=O)c1ccc(C(=O)NN2C(=O)NC3(CCCCC3)C2=O)cc1,-11,10,102,105
CCc1ccccc1NC(=O)CC(NCc1ccccc1)C(=O)O (configuration not stated),-26,-7,106,110
Cc1ccc(C(=O)N2C(=O)C(c3ccccc3)Oc3ccccc32)cc1 (configuration not stated),-36,15,102,105
CCN=C(NCC)SC1CC(=O)N(CCc2ccccc2)C1=O (configuration not stated),-16,.,105,109
Cc1ccccc1OCc1nnc2c3cnn(Cc4ccccc4)c3ncn12,-17,9,104,106
CC1Cc2ccccc2N1S(=O)(=O)/C=C/c1ccccc1 (configuration not stated),-28,0,103,111
Cn1nc(C(=O)Nc2cccnc2)c2c1-c1ccccc1SC2,-15,-7,105,106
CN1C(=O)N(C)C(=O)C(CC(=O)N2CCCCC2)(CC(=O)N2CCCCC2)C1=O,-8,-3,101,101
CC(C)COc1ccccc1OCC(C)C,-15,-5,101,104
CC(C)N1C(=O)C2ON(c3ccc(Cl)cc3)C(c3ccccc3)C2C1=O (configuration not stated),-15,-5,105,101
CC(=O)Nc1ccc(S(=O)(=O)N2CCCCC2)cc1,4,.,101,111
COc1ccc(C2=NN(C(=O)CN3CCCCC3)C(c3ccc(OC)cc3)C2)cc1 (configuration not stated),-27,13,106,108
CCn1c2c(c(=O)[nH]c1=O)C(c1ccc(C)cc1)C1=C(CC(C)(C)CC1=O)N2 (configuration not stated),-7,15,104,110
Cc1noc2ncn(CC(=O)NC3CC3)c(=O)c12,-14,10,98,102
CSc1nnc(Cc2ccccc2)n1-c1ccc(C)cc1,-7,-3,101,102

One compound at a time, as listed above. Order of screens: Mtb MenB inh | Mtb MbtI inh | PV pol inh | PV pol inh intensity
CSc1nnc(Cc2ccccc2)n1-c1ccc(C)cc1 as listed: -7 | -3 | 101 | 102
CC(=O)Nc1ccc(S(=O)(=O)N2CCCCC2)cc1 as listed: 4 | . | 101 | 111
CCn1c2c(c(=O)[nH]c1=O)C(c1ccc(C)cc1)C1=C(CC(C)(C)CC1=O)N2 (configuration not stated) as listed: -7 | 15 | 104 | 110

Rows were taken by chance; any-hit rate near 1.7%.
